Six1-Eya2 inh: blocks human Six1 binding to Eya2 | AlphaScreen GST-Six1/His-Eya2 binding, biochemical; active compounds read low; control for the full effect not named in the record | AID 651725 | activity change, % (concentration not given with the values) | Q15475+O00167 | 0.56% of 360,000 active; in the data active = activity change below about -65%; inconclusive = about -30% to -65%; inactive = above about -30%; also: % is scaled to controls: 0 for no effect and ±100 for the full control effect
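Compounds are tested against tagged Six1 and Eya2 proteins bridged by glutathione donor and nickel acceptor beads; after a one-hour incubation at 37 °C without light, AlphaScreen emission is recorded.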
TRPML1 inh: inhibitors of human TRPML1 channel; Q9GZU1; TRPML1-inducible cells, Ca2+ dye fluorescence, FDSS; active compounds read low; inhibition of EC80 agonist-evoked calcium signal; activity change, negative = inhibition, % (no concentration beside the values); 0.02% of 390,000 active; in the data active means activity change below about -50%; inconclusive means about -30% to -50%; inactive means above about -30%;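 also: stimulus is agonist 54-4 at its EC80 concentration; % is scaled to controls: 0 for no effect and ±100 for the full control effect; compound concentration not given in the record; the text of the record puts the active cut at -80%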
Target sequence (Q9GZU1 whole entry, looked up): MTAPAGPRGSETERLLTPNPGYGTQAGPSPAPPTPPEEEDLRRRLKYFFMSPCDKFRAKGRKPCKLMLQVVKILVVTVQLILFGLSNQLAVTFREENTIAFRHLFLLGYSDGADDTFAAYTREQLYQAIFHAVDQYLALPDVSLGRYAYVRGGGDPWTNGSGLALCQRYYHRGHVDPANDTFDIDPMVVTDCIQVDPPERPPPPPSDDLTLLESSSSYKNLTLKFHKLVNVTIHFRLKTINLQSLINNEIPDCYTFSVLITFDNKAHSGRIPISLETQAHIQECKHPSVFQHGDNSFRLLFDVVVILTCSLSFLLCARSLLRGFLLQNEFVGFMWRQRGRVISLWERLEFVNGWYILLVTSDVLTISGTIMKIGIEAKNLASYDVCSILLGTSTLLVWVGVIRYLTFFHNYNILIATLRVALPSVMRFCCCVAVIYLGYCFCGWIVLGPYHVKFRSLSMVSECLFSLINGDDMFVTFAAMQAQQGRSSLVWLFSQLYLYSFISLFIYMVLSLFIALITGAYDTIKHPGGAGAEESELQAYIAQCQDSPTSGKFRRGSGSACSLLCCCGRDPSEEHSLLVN
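TRPML1-DL cells, Tet-induced overnight (~16 h, 37 °C) at 1,500 cells/well, were loaded with Ca8 no-wash dye plus quencher for 45-90 min at room temperature. Compounds were pinned during FDSS kinetic reading; agonist 54-4 at EC80 (4 uM final) then added.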
CtBP-E1A inh: blocks the CtBP interaction with E1A. 0.49% of 340,000 active. AlphaScreen GST-E1A/His-CtBP binding, 1536-well; active compounds read low; control for the full effect not named in the record. activity change, % (test concentration not listed). AID 651724; in the data active means activity change below about -65%; inconclusive means about -30% to -65%; inactive means above about -30%; also: % is scaled to controls: 0 for no effect and ±100 for the full control effect
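AlphaScreen with 125 nM GST-E1A and 125 nM His-CtBP (5X stocks) in Tris pH 8.0, 300 mM NaCl, BSA, Tween 20, TCEP. Compounds preincubated 2 h at 37 deg C, then glutathione donor/nickel acceptor beads added for 1 h at 37 deg C in dark.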
PINK1 modulator: changes PINK1 expression; AID 624263; 0.2% of 410,000 active; PINK1 immunofluorescence, high-content cytometry, 24 h; Potency, µM (top dose mostly 76.6 µM), for the others: top-dose activation (PINK1 increase), most hits filed as activators; active = well fitted activation curve with a large enough effect; inconclusive = small, poorly fitted or top-dose-only effect; inactive = flat fitted curve, though single readings scatter; cell line not stated here;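 also: potency is read from the fitted curve at half-maximal effect; % of control where 0% means no effect; nearly all actives have a fitted effect of over 65% in size; a mitochondrial uncoupler was the plate control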
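Measures PINK1 amount and localization on or inside mitochondria by immunofluorescence. Stable cells get compounds at 5 concentrations for 24 hours before fixation and staining; CCCP controls included.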
D2 agonist: agonists of human D2 dopamine receptor (beta-arrestin). P14416. DiscoveRx PathHunter D2 beta-arrestin, luminescence, 90 min; 100% = 57 uM dopamine signal. activation, % (test concentration not listed). 0.084% of 360,000 active; in the data active = activation above about 40%; inconclusive = about 15% to 40%; inactive = below about 15%; also: compound concentration not given in the record; the text of the record calls up to 30% inactive
Target sequence (P14416 whole entry, looked up): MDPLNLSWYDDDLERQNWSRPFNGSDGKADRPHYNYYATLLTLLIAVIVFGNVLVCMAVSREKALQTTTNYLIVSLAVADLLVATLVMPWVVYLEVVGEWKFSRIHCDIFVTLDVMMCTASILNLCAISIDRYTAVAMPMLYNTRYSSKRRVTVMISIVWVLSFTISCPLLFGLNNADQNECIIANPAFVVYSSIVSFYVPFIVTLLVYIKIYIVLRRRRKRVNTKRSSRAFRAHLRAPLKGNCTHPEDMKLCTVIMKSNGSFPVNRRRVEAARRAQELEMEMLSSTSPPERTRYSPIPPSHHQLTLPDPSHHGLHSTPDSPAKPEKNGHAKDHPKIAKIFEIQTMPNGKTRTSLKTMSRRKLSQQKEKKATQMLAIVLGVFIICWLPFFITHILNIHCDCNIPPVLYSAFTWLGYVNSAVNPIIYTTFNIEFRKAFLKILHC
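DiscoveRx PathHunter D2 beta-arrestin cells (2,100/well) attached overnight, then compound-stimulated 90 min at 37 C in HBSS/10 mM HEPES/0.1% Tween-20 buffer; beta-galactosidase complementation read by luminescence after 1 h at ambient temperature. Dopamine 57 uM final (EC100) as control.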
TRPML1 agonist: activates the human TRPML1 channel; TRPML1-expressing cells, Ca2+ dye fluorescence, FDSS; host cell line not named in the record; reference of the full effect not given here; activation, % (no concentration beside the values); 0.12% of 410,000 active; AID 624414; in the data active = activation above about 50%; inconclusive = about 30% to 50%; inactive = below about 30%; also: 0% is about no effect; the text of the record puts the active cut at 80%
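In this qHTS format, compounds were pin-transferred onto Ca8-dye-loaded TRPML1-DL cells induced with Tet overnight, and intracellular Ca2+ fluorescence was recorded kinetically for 110 s after a 10 s baseline. A subsequent 4uM final 54-4 (EC80) addition followed by a second 110 s read served as the antagonist phase.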
Active calls of the source: *; ? = inconclusive; . = not tested or not shown; [ ] = another dose, or the depositor's remark.

Values run as follows: Six1-Eya2 inh	TRPML1 inh	CtBP-E1A inh	PINK1 modulator	D2 agonist	TRPML1 agonist
1	CCCCOc1ccccc1C1C(C(N)=O)=C(C)Nc2nnnn21 (centres undefined)
 : 6	19	3	1.0%[38.3 µM]	-1.4	-0.4
2	Cc1ccc(C(=O)CC2C(=O)N(c3ccccc3)C(=S)N2c2ccccc2)cc1 (centres undefined)
 : -7	-15	-5	1.3%	-3.0	0.9
3	O=C(c1cc(C2CC2)on1)N1CCN(C(c2ccccc2)c2ccccc2)CC1
 : 13	27	0	4.6%	-1.9	1.3
4	Cc1cc(C(=O)CSc2nnc(Nc3ccccc3F)s2)c(C)n1CC1CCCO1 (centres undefined)
 : -25	11	-29	-3.5%	1.8	4.4
5	CCCNC(=O)C(Cc1ccc(C(F)(F)P(=O)(OCC)OCC)cc1)NC(=O)c1ccc(C#N)cc1 (centres undefined)
 : 1	29	-8	2.1%	-1.8	-0.6
6	COC(=O)c1cc(CSC(=N)N)ccc1OCCC(C)C
 : 12	3	15	?	-2.3	0.2
7	C(=N\n1cnnc1)/c1ccc(-c2ccccc2)cc1
 : 16	0	26	-3.0%	-1.8	0.1
8	O=C(COC(=O)/C=C/c1cccc(Cl)c1)NCCC1=CCCCC1
 : 1	38	7	2.9%	-3.5	0.3
9	O=[N+]([O-])c1ccc(Cc2cncc(O)c2)cc1
 : -1	6	.	1.8%	-0.3	0.8
10	Cc1ccnc2c(N3C(=O)C4C5C=CC(C5)C4C3=O)cccc12 (centres undefined)
 : -1	14	-3	0.5%	-2.3	-0.6
11	C=CCNc1nc(Nc2ccc([N+](=O)[O-])cc2)nc(OC)n1
 : -4	?	.	2.3%	-8.2	-0.2
12	CCN(CC)c1ccc(NC(=O)CSC(=O)c2ccccc2)cc1
 : -21	-1	-16	0.3%	3.1	3.4
13	CC(C)(NC(=O)c1ccccc1)c1nc2ccccc2s1
 : -1	-1	3	-0.2%	-2.7	-0.6
14	O=C(c1ccc(F)cc1)N1CCCC(c2nc(-c3ccncc3)no2)C1 (centres undefined)
 : -2	17	4	0.2%	-1.0	-0.3
15	COCCn1c(SCC(=O)c2[nH]c(C)c(C(C)=O)c2C)nc2ccccc21
 : -1	1	8	.	-1.7	0.8
16	N#Cc1ccccc1S(=O)(=O)N1CCN(C(=O)CN2CCCSc3ccccc32)CC1
 : -19	-28	5	0.7%	0.7	0.4
17	CCCCS(=O)(=O)c1sc2nc(C)cc(C)c2c1N
 : -2	11	-4	1.8%[38.3 µM]	-1.0	-0.4
18	COc1ccc(CN2CCNC(=O)C2CC(=O)NCc2csc(C(C)C)n2)c(OC)c1 (centres undefined)
 : -10	3	-7	-1.3%	-0.6	2.8
19	Cc1nn(Cc2ccc(C(=O)N3c4ccc(F)cc4CCC3C)o2)c(C)c1Br (centres undefined)
 : 4	10	-3	1.1%	-5.1	-0.5
20	COc1cc(OC)nc(NC(=O)CSc2nc3ccccc3[nH]2)n1
 : 2	-7	5	-7.3%[38.3 µM]	-1.6	0.3
21	CCN(CC(=O)Nc1c(F)cccc1F)C(=O)c1cnccn1
 : 4	-8	2	1.8%	4.2	0.5
22	CCN(CC(=O)Nc1ccc(OC)cc1)CC(=O)Nc1cccc(S(=O)(=O)N2CCOCC2)c1
 : -7	5	2	2.7%	-3.8	-1.0
23	COc1ccc(CNc2cccnc2)c(OC)c1OC
 : -5	3	5	-0.7%	-2.5	-0.5
24	Cc1ccc(CNC(=O)CCc2ccccc2)cc1
 : 6	-5	-2	-1.8%	-4.1	-0.4
25	CC(C)c1ccc(Nc2nnns2)cc1
 : 2	25	-19	-1.2%	5.3	0.5
26	COC(=O)CSc1nnc(CNC(=O)c2ccccc2F)n1-c1ccc(F)cc1
 : 2	-17	-4	0.0%	-1.9	0.0
27	N#Cc1c(N)nc2c(c1N)CC(COc1ccccc1)O2 (centres undefined)
 : -7	-3	1	1.3%	1.9	-1.0
28	c1ccc2c(C[C@@H]3CNCCN3CC3CCCCC3)cccc2c1
 : -1	8	-2	-1.3%	-5.6	0.5
29	CCSC1=C(C#N)C(c2cccc(O)c2)CC(=O)N1 (centres undefined)
 : 15	2	2	-0.6%	-6.2	-1.1
30	Cc1cc(C)n(CCC(=O)N2CCc3ccccc32)n1
 : 4	-18	.	1.0%	-3.1	0.7

The list goes on, starting with the last two of the part before.
Values run as follows: Six1-Eya2 inh	TRPML1 inh	CtBP-E1A inh	PINK1 modulator	D2 agonist	TRPML1 agonist
29	CCSC1=C(C#N)C(c2cccc(O)c2)CC(=O)N1 (centres undefined)
 : 15	2	2	-0.6%	-6.2	-1.1
30	Cc1cc(C)n(CCC(=O)N2CCc3ccccc32)n1
 : 4	-18	.	1.0%	-3.1	0.7
31	CCSc1nc2nn(-c3ccccc3)c(=O)c-2c2n1CCCCC2
 : -12	-5	-7	0.8%	-5.3	-0.7
32	Cc1cccc2c1N(CCCOc1ccc(C(C)(C)C)cc1)C(=O)C2=O
 : -10	-5	-2	0.0%	-25	0.9
33	O=C(Nc1cccnc1)c1cccc(S(=O)(=O)N2CCCCC2)c1
 : -2	-21	0	-0.3%	0.5	0.0
34	Nc1nc(CSC(=S)N2CCOCC2)nc(Nc2ccccc2)n1
 : 1	6	15	2.2%	4.9	-0.4
35	CC(=O)c1cccc(N(CC(=O)N2CCCCC2)S(C)(=O)=O)c1
 : 2	-3	1	5.7%[38.3 µM]	-2.6	1.1
36	CC(=O)Nc1ccc(S(=O)(=O)NCCN2CCOCC2)cc1
 : 6	30	10	3.0%[38.3 µM]	0.4	1.6
37	CN(C(=O)Cn1nnc(-c2ccccc2)n1)C1CCS(=O)(=O)C1 (centres undefined)
 : 4	31	8	1.6%	-4.5	0.1
38	Cc1nc2nc(SCC(=O)NC3CCCCC3)nn2c(C)c1Cc1ccccc1Cl
 : .	-11	.	3.6%	.	0.7
39	CCc1ccc(OCC(=O)NNC(=O)c2ccc(NC(=O)C3CC3)cc2)cc1
 : 35	2	0	-1.6%	2.7	1.2
40	O=C1C=C(c2ccc(F)cc2OCc2ccccc2)C[C@@H](c2ccc(Cl)cc2)C1
 : 4	1	3	2.0%	-0.6	-0.1
41	COc1ccc(S(=O)(=O)N2CCOCC2)cc1NC(=O)CSc1ncccn1
 : -8	21	-4	5.1%	-3.3	0.4
42	O=C1Nc2cc(Cl)cnc2N2CCCC12 (centres undefined)
 : -8	6	-6	6.3%	-4.8	0.0
43	COC(=O)c1ccc(C(c2c(N)n(Cc3ccccc3)c(=O)n(C)c2=O)N2CCOCC2)cc1 (centres undefined)
 : -1	-10	14	-4.9%	-2.9	4.3
44	O=C(CCNS(=O)(=O)c1ccccc1F)OCc1ccccc1Cl
 : -14	-8	14	3.9%	0.7	-0.4
45	CS/C(=C/[N+](=O)[O-])Nc1cccc2c1C(C)CC2(C)C (centres undefined)
 : -1	-11	-1	1.2%	-0.3	-0.3
46	OCCOCCn1c(-c2ccccc2)nc(=S)c2c1CCCC2
 : 4	3	-1	-0.8%	-5.8	-0.8
47	C/C(=N\N=C(c1ccccc1)c1ccccc1)c1ccco1
 : -3	-24	-2	2.0%	0.6	1.0
48	CS(=O)(=O)NCCCc1ccccc1
 : -2	18	9	0.3%	-1.1	-0.8
49	CC(C)CCn1c(N2CCC(C(N)=O)CC2)nc2c1c(=O)[nH]c(=O)n2C
 : 2	0	5	0.5%	-2.7	-0.5
50	CC(C)c1nc(-c2ccc([N+](=O)[O-])cc2)cs1
 : -5	-3	-11	2.5%	0.2	-0.2
51	Cc1cccc(NC(=O)CSc2nnc(C)c(=O)n2N)c1C
 : 4	-5	1	-0.1%	1.9	0.7
52	CN(c1ccc(F)cc1)S(=O)(=O)c1ccc(Cl)c(C(=O)NCC(c2ccco2)N2CCCCC2)c1 (centres undefined)
 : -7	-14	-2	1.7%	2.8	0.2
53	Cc1ccc(NC(=O)c2ccccc2)cc1
 : 2	1	1	4.4%	-3.2	0.0
54	C=CCOC(=O)/C=C/C(=O)NC(N)=O
 : 0	-10	.	5.9%	-6.5	-0.1
55	CC(C)Oc1cccc(NC(=O)C2(C)CCCN(C)C2)c1 (centres undefined)
 : 6	.	0	1.3%	-2.6	-0.1
56	COc1ccc(-c2c(C#Cc3ccsc3)c3cc(-c4cccc5[nH]ccc45)ccc3n2C)cc1
 : 0	24	3	-0.1%	0.0	-0.3
57	CCc1ccc(NC(=O)N2CCN(c3nnc(C)c4c(C)n(-c5ccc(Cl)cc5)nc34)CC2)cc1
 : .	-22	.	-0.4%	.	2.8
58	COc1ccc(S(=O)(=O)N2CCCCCC2)cc1C(=O)Nc1cccc(C)n1
 : ?	-2	?	14%	-3.8	0.1
59	Cc1ccc(COC(=O)NCc2cccnc2)cc1
 : 3	1	4	-0.7%	-3.7	0.8
60	COc1ccc(NC(=O)CSc2nc3[nH]c(=O)cc(O)c3s2)c(OC)c1
 : -1	-11	3	-2.8%	-5.9	-0.1
61	COc1ccc(C(=O)NCCC2=CCCCC2)cc1OC
 : 11	-20	10	-0.5%	-2.0	-1.0
62	O=C(NCC(c1cccs1)N1CCOCC1)c1ccc(Cl)s1 (centres undefined)
 : -1	-1	-12	.	-0.6	-0.4
63	CSc1ccc(Cl)c(C(=O)OCC(=O)NC2CC2)c1
 : 4	-14	7	-1.6%	-0.4	1.6
64	COc1ccc(-c2csc(C(O)(c3ccccc3)C(F)(F)F)n2)cc1 (centres undefined)
 : -1	.	8	5.7%	6.0	0.3
65	COc1ccc(CC(=O)OC(C)CN2CCCCC2)cc1 (centres undefined)
 : 7	1	1	6.1%	-2.7	0.8
66	CCOC(=O)c1ccc(S(=O)(=O)n2c(CN3CCCCC3)nc3ccccc32)cc1
 : 3	3	-6	5.6%	-2.2	0.9
67	O=C(O)Cc1ccc(C(=O)c2ccc(Cl)cc2)s1
 : 8	1	8	0.3%	-1.5	-0.3

Arranged by value in D2 agonist (low to high): 4 of the compounds above
| No. | SMILES | D2 agonist |
| --- | --- | --- |
| 31 | CCSc1nc2nn(-c3ccccc3)c(=O)c-2c2n1CCCCC2 | -5.3 |
| 30 | Cc1cc(C)n(CCC(=O)N2CCc3ccccc32)n1 | -3.1 |
| 14 | O=C(c1ccc(F)cc1)N1CCCC(c2nc(-c3ccncc3)no2)C1 (centres undefined) | -1.0 |
| 45 | CS/C(=C/[N+](=O)[O-])Nc1cccc2c1C(C)CC2(C)C (centres undefined) | -0.3 |

Source: PubChem BioAssay (National Center for Advancing Translational Sciences (NCATS))
